Compound activity: PubChem BioAssay, Johns Hopkins Ion Channel Center
KCNQ2 pot = enhances the rat KCNQ2 potassium channel; O88943; actives 0.54% (n = 310,000); B-score at 10 µM; AID 2239; CHO-K1 KCNQ2, FluxOR thallium flux fluorescence; active compounds read high;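 active = fluorescence ratio B-score at least 3 SD of library B-scores, with initial fluorescence B-score within 3 SD, cut at about 5.3 in these data; same plate scores as AID 2156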;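 note: B-score of peak minus minimum over baseline fluorescence ratio after K+ and Tl+ stimulus; positive B-score means potentiation of KCNQ2 with more thallium influx and brighter signal; only the inactives scoring about 0 or higher are listed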
Target sequence (O88943 whole entry, looked up): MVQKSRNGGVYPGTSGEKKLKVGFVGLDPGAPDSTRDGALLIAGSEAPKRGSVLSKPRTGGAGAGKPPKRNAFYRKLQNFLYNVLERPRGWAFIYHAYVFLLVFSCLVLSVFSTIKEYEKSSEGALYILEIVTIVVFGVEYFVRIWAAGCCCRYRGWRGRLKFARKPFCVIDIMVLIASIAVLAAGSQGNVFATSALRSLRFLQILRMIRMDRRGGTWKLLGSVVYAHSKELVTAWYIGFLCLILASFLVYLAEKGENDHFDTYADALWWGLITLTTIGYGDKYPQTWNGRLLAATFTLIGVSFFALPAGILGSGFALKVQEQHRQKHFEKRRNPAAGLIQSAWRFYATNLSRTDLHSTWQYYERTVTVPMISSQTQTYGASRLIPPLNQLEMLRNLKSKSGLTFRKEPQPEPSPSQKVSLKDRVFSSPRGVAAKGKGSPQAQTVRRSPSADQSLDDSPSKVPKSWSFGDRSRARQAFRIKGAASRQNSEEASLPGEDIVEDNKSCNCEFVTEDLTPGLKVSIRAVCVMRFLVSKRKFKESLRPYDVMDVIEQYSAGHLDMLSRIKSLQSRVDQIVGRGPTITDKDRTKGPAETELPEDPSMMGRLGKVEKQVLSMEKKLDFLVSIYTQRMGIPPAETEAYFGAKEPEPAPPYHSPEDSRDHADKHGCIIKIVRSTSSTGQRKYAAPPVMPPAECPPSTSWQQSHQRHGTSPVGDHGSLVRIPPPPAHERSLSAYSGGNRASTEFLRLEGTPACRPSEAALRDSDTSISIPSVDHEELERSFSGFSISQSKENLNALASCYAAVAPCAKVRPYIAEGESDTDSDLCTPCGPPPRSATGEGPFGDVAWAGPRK
KCNQ2 pot baseline = also measured in KCNQ2 pot; calls as there; B-score; compound at 10 µM; measured here: initial fluorescence intensity artifact check;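 brightness before thallium and not channel activity; 0 = typical well and far values either way flag optical interference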
Active calls of the source: *. This is a subset; the hit share may differ from the screen's.

The line under a structure holds: KCNQ2 pot, KCNQ2 pot baseline
> COc1ccc(C2CC(C(F)(F)F)n3nc(C(=O)NCc4c(C)nn(C)c4C)c(Cl)c3N2)cc1 (centres undefined)
    0.11, 0.57
> CCOC(=O)Cc1cc(=O)n2[nH]c(C)c(-c3ccc(Cl)cc3)c2n1
    1.7, 1.1
> CN1CCN(c2ccc(NC(=O)c3ccccc3Br)cc2)CC1
    1.2, -0.41
> COc1cc2c(cc1O)[C@@H]1Cc3cc(OC)c(OC)cc3C(C2)N1C
    1.6, -0.12
> Cc1noc(C)c1COC(=O)CCc1nc2ccccc2s1
    1.6, 0.07
> CCc1ccc(Oc2nc([N+](=O)[O-])nn2C)cc1
    0.81, 0.85
> O=C(NCCc1cccc(C(F)(F)F)c1)C1CCC(=O)N(Cc2ccc(Cl)cc2)C1 (centres undefined)
    0.93, -2.5
> N/C(=N\N=C/c1ccc(Br)cc1)N/N=C\c1ccc(Br)cc1
    0.08, -1.2
> CCCn1c2ccccc2c2cnn(CC(=O)NC3CCC(C)CC3)c(=O)c21 (centres undefined)
    0.25, 0.44
> CCOC(=O)c1oc2ccc(Cl)cc2c1NC(C)=O
    1.2, -0.15
> Cc1ccc(-n2c(SCC(=O)N3CCOCC3)nc(O)cc2=O)cc1
    0.14, -0.1
> S=C(NCCc1ccccc1)NCc1cccc(Cl)c1
    2.3, -2.2
> O=Cc1cn(-c2ccccc2)nc1-c1ccccc1
    0.35, -2.4
> Cc1c(NC(=O)c2ccccc2NC(=O)c2ccccc2)cccc1C(=O)O
    0.93, -0.29
> Cc1ccc(NC(=O)CSc2nc(N)c(-c3ccccc3)c(=O)[nH]2)cc1Cl
    0.23, -1
> CCOC(=O)Nc1nn(-c2ccc(C)cc2)c(=O)c(C#N)c1C
    0.61, 1.1
> COc1cccc(OCCCN2CCN(S(=O)(=O)c3ccc(NC(C)=O)cc3)CC2)c1
    0.57, -0.55
> Cc1ccn2c(=O)nc(SCC(=O)Nc3ccc4c(c3)OCO4)nc2c1
    1.1, -1.3
> O=S(=O)(Cc1nnnn1-c1ccc(Br)cc1)c1ccc(F)cc1
    0.24, -1.3
> O=S(=O)(Nc1ccc(N2CCCCC2)cc1)c1ccccc1F
    0.93, -0.04
> CN1C(=O)Cc2cc(S(=O)(=O)N3CCN(c4cccc(C(F)(F)F)c4)CC3)ccc21
    0.84, -2.6
> c1ccc(-n2nnc(-c3nccs3)n2)cc1
    0.4, 0.31
> Cc1n[nH]c(C)c1S(=O)(=O)N1CCCC(C(=O)NCC2COc3ccccc3O2)C1 (centres undefined)
    0.37, 0.01
> CCCc1cc(=O)oc2c(C)c3occ(C)c3cc12
    0.01, -0.77
> COc1ccc2oc(C(=O)Nc3nc4ccc(S(C)(=O)=O)cc4s3)c(C)c2c1
    1.1, -0.93
> O=C(COc1ccc(Br)cc1)OCc1nnc(-c2ccccc2)o1
    1.2, -1.1
> O=C(Cc1ccccc1)Nc1c(C(=O)N2CCOCC2)cnn1-c1ccccc1
    1.8, -1
> CCC(CC)NCC(O)COc1ccc(Br)cc1 (centres undefined)
    1.5, 1.6
> CCOc1ccc(NC(=O)COc2ccc(S(=O)(=O)N3CCCC3)cc2)cc1
    0.25, -0.96
> Cc1cc(C)c(S(=O)(=O)NCC2CCC(C(=O)NCCCN3CCOCC3)CC2)c(C)c1 (centres undefined)
    0.16, -1.4
> O=C(Nc1nnc(Cc2ccccc2)s1)C1CCC1
    2.1, -0.76
> CCC(=O)NC1CC2CCCC(C1)N2Cc1ccc(C)cc1 (centres undefined)
    0.27, 1.6
> CC(=O)c1cc(F)ccc1OCC(=O)N1CCN(c2ccc(F)cc2)CC1
    0.45, 0.26
> CCCCn1c(CNC(C)=O)nc2ccccc21
    1.7, -0.28
> Cc1ccc(N2CCN(S(=O)(=O)c3c(C)nc4scc(C)n4c3=O)CC2)c(C)c1
    2.1, -0.11
> CC(=O)c1cc(C#N)c(N2CCCC2)nc1C
    0.01, -0.56
> Cc1ccc(/C=N\NC(=O)CNC(=O)C23CC4CC(CC(C4)C2)C3)o1
    2.1, 0.91
> Cc1cc(S(=O)(=O)N2CCCC2)c(C)s1
    0.07, 0.12
> O=C(CC12CC3CC(CC(Br)(C3)C1)C2)NCc1ccccc1
    1.2, 1.3
> N#Cc1c(-c2cccs2)nc(SCC(=O)c2ccc(Br)cc2)[nH]c1=O
    1.4, 0.05
> O=C(NNC(=O)c1cc(O)c(O)c(O)c1)NC1CCCCC1
    0.17, -0.28
> CC1(C)Cc2c(sc(NC(=O)c3ccc(C(=O)c4ccccc4)cc3)c2C(N)=O)C(C)(C)N1
    2.6, -0.73
> Cc1ccc(SCCC(=O)Nc2nccs2)cc1
    0.46, 0.55
> CCOc1cc(/C=C2/SC(=S)N(CC3CCCO3)C2=O)ccc1O (centres undefined)
    0.58, 0.89
> Cc1cc(=O)[nH]c(-n2ncc(C#N)c2N)n1
    1.3, -0.99
> CC(NC(=O)c1ccc(F)cc1F)C1CC2CCC1C2 (centres undefined)
    0.02, 1.5
> CC1CCN(C(=O)C2CCN(S(=O)(=O)c3cccs3)CC2)CC1
    0.08, -0.56
> NC(=O)Cn1cnc2nc3n(c2c1=O)CCC3
    0.44, -0.63
> Cc1[nH]c2ccccc2c1CC#N
    0.75, -0.14
> Clc1ccc(-c2csc(-c3ccncc3)n2)cc1
    0.53, -1.1
> c1ccc(COc2ccc(-c3sc(Nc4ccccc4)n[n+]3-c3ccccc3)cc2)cc1
    0.01, 1.2
> CCn1c(CNc2cccc(Cl)c2)nnc1SCc1ccccc1
    1.5, 0.06
> COCCNC(=O)/C(C#N)=C/c1c(N2CCN(c3ccccc3)CC2)nc2ccccn2c1=O
    0.7, 2.1
> Cc1ccc(C(C)C)c(OCCCNCc2cccnc2)c1
    0.41, 0.82
> Cn1c(COc2ccccc2)nnc1SCC(=O)NNC(=O)C1CCCCC1
    0.59, 0.02
> CCc1cccc2c1NC(=O)C2(O)N1CCCC(C)C1 (centres undefined)
    2.1, 0.16
> Cc1ccc(NC(=O)CNC(=O)c2ccc(Br)o2)nc1
    0.56, -1.5
> COc1ccc(-n2c(Cc3cccn3C)nnc2SCC(=O)Nc2ccc(C)cc2)cc1
    0.07, 1.2
> O=C(COc1ccc2ccccc2c1)Nc1cccc(C(=O)Nc2ccccc2C(=O)O)c1
    2.4, 0.02
> COc1ccc(NC(=S)N(CCC(C)C)C2CCN(C(C)=O)CC2)cc1
    2.5, -1.9

Continuation:
The line under a structure holds: KCNQ2 pot, KCNQ2 pot baseline
> CCOC(=O)c1c(NC(=O)Cc2ccccc2)sc2c1CCN(CC)C2
    3, -1.9
> COc1ccc(C(=O)NC(C)c2nc3ccccc3n2C)cc1OC (centres undefined)
    2, -0.42
> CCc1ccc(C(=O)Nn2c(C)nc3ccccc3c2=O)cc1
    1.4, -0.69
> O=C(NC(=O)N1CCN(c2cccc(Cl)c2)CC1)c1ccc(Cl)cc1
    0.37, 0.07
> O=C1NC2(CCCCC2)C(=O)N1/N=C/c1ccc(O)cc1O
    0.97, -0.08
> O=C(NCCN1CCN(c2ccccc2)CC1)c1ccc2c(c1)[nH]c(=S)n1c3ccccc3nc21
    1.1, 1.9
> COc1ccc(NS(=O)(=O)c2c(C)n(C)c(=O)n(C)c2=O)cc1OC
    0.08, 1.9
> CCn1cc(C(=O)NCCc2ccccc2)c(=O)c2cc(S(=O)(=O)N(C)C)ccc21
    0.02, 1.6
> COc1ccc(-n2nc(C(=O)NCC(=O)N3CCN(C)CC3)c3ccccc3c2=O)cc1
    1, 1.3
> C/C=C/C(=O)OCC(=O)Nc1ccc(SC(F)F)cc1
    2.5, -0.99
> C/C=N/NC(=O)CCNC(=O)c1ccccc1
    0.48, -0.75
> O=C(COC(=O)CN1C(=O)NC2(CCCC2)C1=O)Nc1ccccc1C(F)(F)F
    1.2, -2.3
> Cc1cc(=O)[nH]c2ccc(Cl)cc12
    0.91, 0.54
> COc1ccc(O)c(C(=O)c2cnc3c(c2)c(=O)[nH]c(=O)n3C)c1
    0.28, -0.83
> Cc1ccc(SCC(=O)Nc2ccc3c(c2)OCCO3)cc1
    0.33, -0.01

In a second layout: 2 of the compounds above.
KCNQ2 pot	KCNQ2 pot baseline	Compound
1.2	-0.41	CN1CCN(c2ccc(NC(=O)c3ccccc3Br)cc2)CC1
1.6	-0.12	COc1cc2c(cc1O)[C@@H]1Cc3cc(OC)c(OC)cc3C(C2)N1C

The list continues:
The line under a structure holds: KCNQ2 pot, KCNQ2 pot baseline
> CS(=O)(=O)N1CCN(c2ccc(NC(=O)c3ccc(Br)o3)cc2)CC1
    0.45, -1.1
> COCC(C)NC(=O)c1cc(S(=O)(=O)N2CCCCC2)ccc1N1CCOCC1 (centres undefined)
    0.33, 0.41
> Cc1cc(C)c2nc(N3CCCC3)c(C#N)cc2c1
    0.07, 1.4
> COc1ccc(/C=N\NC(=O)c2nn(C)cc2Cl)cc1CN1CCOCC1
    0.59, -2
> O=C(NCCCCCCNC(=O)c1ccncc1)c1ccncc1
    1.4, 0.02
> COc1ccccc1C(=O)N1CCNC(=O)C1CC(=O)Nc1cccc(C)c1 (centres undefined)
    0.96, 0.4
> NS(=O)(=O)c1ccc(NC(=S)N2CCN(c3cccc(Cl)c3)CC2)cc1
    2.3, 2.2
> COc1ccc(CCNC(=O)CCOc2ccc(C(C)(C)C)cc2)cc1OC
    0.49, -0.71
> CCC(=O)Nc1sc2c(c1C(N)=O)CCC2
    1.9, -2.7
> CCN1CCN(CC2CC3C=CC2C3)CC1 (centres undefined)
    1.6, 0.22
> CC(C)Oc1ccc(CCC(=O)NNC(=S)Nc2ccccc2)cc1
    0.06, -1.2
> S=C(NCCCN1CCOCC1)Nc1ccc(-c2nc3ccccc3[nH]2)cc1
    0.18, -1
> O=[N+]([O-])c1cc(NS(=O)(=O)c2ccc(Cl)nc2)ccc1Cl
    1.4, 0.77
> Cc1ccc(OCCn2c(CCNC(=O)C(C)C)nc3ccccc32)cc1
    0.78, 0.33
> O=C(c1ccco1)N1CCc2[nH]nc(-c3ccc(Cl)cc3)c2C1
    0.88, 1.9

(cont.)
smiles,KCNQ2 pot,KCNQ2 pot baseline
CCSc1nc2c(c(=O)[nH]c(=O)n2C)n1CC(O)COc1ccccc1 (centres undefined),3,8.1
CN(CC(=O)OCC(=O)Nc1ccccc1)S(=O)(=O)c1ccc(Cl)cc1,0.79,1
O=C(Oc1ccc([N+](=O)[O-])cc1)c1cncc(Br)c1,0.49,1.8
N=C1C(=O)OCC1c1ccccc1NC(=O)CN1CCCCC1 (centres undefined),0.11,0.1
O=C(NC1CCCCC1)N1CCC(c2nc3ccc(Cl)cc3[nH]2)CC1,0.21,-1.2
CCS(=O)(=O)N1CCC(C(=O)Nc2ccccc2OC)CC1,0.03,-0.03
Cn1c(-c2ccccc2)c(C=O)c2ccccc21,0.19,-0.26
CCc1cc2c(-c3ccccc3)cc(=O)oc2cc1OC(C)C(=O)O (centres undefined),1.1,-0.73
COc1cc(C(=O)N[C@H](C(=O)NC(C)C23CC4CC(CC(C4)C2)C3)C(C)C)cc(OC)c1OC (some centres undefined),0.7,-1
CCCCc1cc(=O)oc2cc(O)cc(O)c12,1.4,0.02
COc1cccc(CNC(=O)CCSCc2ccccc2F)c1,0.24,0.5
COc1ccc(CCN2C(=O)CC(NCc3ccc4c(c3)OCO4)C2=O)cc1OC (centres undefined),0.68,0.42
CCOc1ccc(S(=O)(=O)NCCC(=O)NCC(C)(C)N2CCOCC2)cc1,1.3,-0.54
COc1cc([N+](=O)[O-])ccc1NC(=S)N1CCOCC1,0.55,-2.7
CCN(CC)CCn1c(NCc2ccco2)nc2ccccc21,0.5,0.88
O=C(NCc1cccs1)Nc1cccc(Cl)c1,2.5,0.46
CN(C)CC(C)(C)CNC(=S)NCc1ccc2c(c1)OCO2,0.97,-1.5
O=C(COC(=O)c1ccccc1F)NC1CCCC1,0.36,-0.01
O=C1CCC(CCC(=O)N2CCCC(C(=O)c3ccc4c5c(cccc35)CC4)C2)=NN1 (centres undefined),1.2,-1.4
CCC(=O)N1CC2(CC(c3cccc(NC(=O)COc4ccc(Cl)cc4)c3)=NO2)C[C@@H]1C(N)=O (some centres undefined),0.97,0.65

Compound profiles, as listed above. Screens in order: KCNQ2 pot	KCNQ2 pot baseline
`CCc1cc2c(-c3ccccc3)cc(=O)oc2cc1OC(C)C(=O)O` (centres undefined) reads 1.1	-0.73
`CCN(CC)CCn1c(NCc2ccco2)nc2ccccc21` reads 0.5	0.88
`COc1cc(C(=O)N[C@H](C(=O)NC(C)C23CC4CC(CC(C4)C2)C3)C(C)C)cc(OC)c1OC` (some centres undefined) reads 0.7	-1

Other entries:
smiles,KCNQ2 pot,KCNQ2 pot baseline
CCN(CC)C(=O)CSc1nnc(-c2cccnc2)n1Cc1ccccc1,0.16,0.87
CCOC(=O)C1=NOC(Cn2cc(C(C)=O)c(=O)[nH]c2=O)C1 (centres undefined),0.07,0.44
COCCn1c(C)cc(O)c(C(=O)Nc2cccc(Cl)c2)c1=O,0.33,1.3
Cc1cc(C(F)(F)F)nn1CC(=O)NCC1CCCO1 (centres undefined),0.2,-0.02
COc1ccc(-c2nc3ccccc3c(=O)n2CCN2CCOCC2)cc1,1.1,-0.92
CCOc1ccccc1OCC(=O)Nc1cc2c(cc1C(=O)O)OCCCO2,0.2,0.89
O=c1c([N+](=O)[O-])c(NC2CCCCC2)c2ccccc2n1-c1ccccc1,0.5,-0.01
Cc1ccccc1-c1nc(CN2CCC(C(=O)NCc3cccnc3)CC2)c(C)o1,0.09,0.46
CCOC(=O)CNNC(=O)Nc1ccc(Cl)c(Cl)c1,0.7,-0.46
COc1ccc(CNS(=O)(=O)NCc2ccccc2)cc1OC,0.52,0.58
S=C(NCc1cccnc1)Nc1ccc(Oc2ccccc2)cc1,0.02,0.51
Cc1ccc(Nc2nnns2)cc1C,0.65,-1.2
O=C(CSc1nnc(-c2ccncc2)n1Cc1ccco1)Nc1cccc(O)c1,0.22,0.81
O=C(Cc1ccccc1)NCCSCc1ccccc1,0.25,1.1
O=C(N/N=C/c1ccc2cccc(OCc3ccccc3)c2n1)c1ccc(Br)cc1,0.75,-0.52
